Screening data: PubChem BioAssay, several laboratories
Vif TR-FRET = HIV-1 Vif–A3G interaction blockers – biochemical, TR-FRET, GST-Vif 1-94, biotin-A3G peptide, dose response retest, primary screen (AID 1117319). TR-FRET GST-Vif / biotin-A3G peptide binding; higher % means a stronger effect; test concentration not given here; strong numbers were not always called active. inhibition, %; hits with a dose series show IC50 in µM. hit rate 0.57% among 260,000;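 active = above the screen mean plus three standard deviations and confirmed in dose response; inconclusive = results disagree or hit not tested in dose response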;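 also: Vif residues 1-94 fused to GST binding biotinylated APOBEC3G peptide 110-148; 0% = full assay without inhibitor and 100% = GST in place of GST-Vif; retest series ran down from 100 µM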
HNF4A DNA FP = change in binding of human HNF4 alpha to DNA | hit rate 0.3% among 360,000 | P41235 | activity change, % at 10 µM | AID 1224865 | HNF4a-FITC DNA binding, fluorescence polarization, 1 h; in the data active = activity change above about 30%, passing the limit was not always enough;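 also: controls were the assay level and a saturating level of protein; the project sought stronger binding though the title names inhibitors; some compounds called inactive have numbers as strong as hits; positive values seem to mean higher polarization but the record does not say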
RanGTP-Impb inh = inhibitors of RanGTP-importin-beta interaction, primary screen, biochemical, FRET, CFP-Ran, YFP-importin-beta, homogeneous; cell-free CFP-Ran/YFP-importin-beta FRET ratio; inhibition, % (no concentration beside the values); hit rate 1.1% among 300,000;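 active = most replicates above 15%; inconclusive = exactly half above 15%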;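 also: 0% = DMSO wells and 100% = Ran loaded with GDP instead of GTP; wells of about 40 µL received 100 nL stock; the first replicate is given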
B2AR ag = agonists of human beta-2 adrenergic receptor inducing internalization | P07550 | Am2.2-beta2AR cells, FAP receptor internalization, flow cytometry; reference of the scale not given here | response, % (concentration not given with the values) | hit rate 0.43% among 340,000;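 active = response above a set limit, near 3 SD of response in nonfluorescent compounds, cut at about 42% in these data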;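 also: stock transfer was 100 nL into about 11 µL; a reference agonist was the positive control; negative values mostly stem from fluorescent compounds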
Calb FLC = C. albicans growth modulation with fluconazole | C. albicans CaCi-2 (fluconazole-resistant clinical isolate) + fluconazole, Alamar Blue growth, 48 h | growth inhibition, % (test concentration not listed) | hit rate 0.57% among 300,000;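 active = most replicates above 75%; inconclusive = exactly half above 75%; inactive = most below 75%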;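 also: all wells also contain fluconazole at 8 µg/ml as a sub-toxic cotreatment; 0% = median of DMSO wells and 100% = median of geldanamycin control wells; wells of about 8 µL received 7.5 nL stock; the first replicate is given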
ALR inh = inhibitors of human sulfhydryl oxidase ALR; P55789; purified ALR, DTT oxidation, H2O2 HRP-luminol luminescence; inhibition, % (concentration not given with the values); hit rate 3.8% among 290,000;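 active = mean and each replicate at 75% or more; inconclusive = only one of the two met; inactive = neither met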;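 also: stock transfer was 7.5 nL into about 7.5 µL; 0% = neutral wells and 100% = wells with inactivated enzyme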
LANA-H2A inh = blocks KSHV LANA binding to histone H2A/H2B; AID 2629; inhibition, % (no concentration beside the values); hit rate 0.6% among 320,000; cell-free LANA-H2A/H2B peptide, fluorescence polarization; in the data active = inhibition mostly above about 10%, no sharp cut-off; inactive = mostly below about 6.7%;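 also: stock transfer was 7.5 nL into about 10 µL; 0% = median of vehicle wells and 100% = median of positive control wells; one replicate is shown; the record names a cut of 25% in any replicate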
Target sequence (Q9QR71 whole entry, looked up): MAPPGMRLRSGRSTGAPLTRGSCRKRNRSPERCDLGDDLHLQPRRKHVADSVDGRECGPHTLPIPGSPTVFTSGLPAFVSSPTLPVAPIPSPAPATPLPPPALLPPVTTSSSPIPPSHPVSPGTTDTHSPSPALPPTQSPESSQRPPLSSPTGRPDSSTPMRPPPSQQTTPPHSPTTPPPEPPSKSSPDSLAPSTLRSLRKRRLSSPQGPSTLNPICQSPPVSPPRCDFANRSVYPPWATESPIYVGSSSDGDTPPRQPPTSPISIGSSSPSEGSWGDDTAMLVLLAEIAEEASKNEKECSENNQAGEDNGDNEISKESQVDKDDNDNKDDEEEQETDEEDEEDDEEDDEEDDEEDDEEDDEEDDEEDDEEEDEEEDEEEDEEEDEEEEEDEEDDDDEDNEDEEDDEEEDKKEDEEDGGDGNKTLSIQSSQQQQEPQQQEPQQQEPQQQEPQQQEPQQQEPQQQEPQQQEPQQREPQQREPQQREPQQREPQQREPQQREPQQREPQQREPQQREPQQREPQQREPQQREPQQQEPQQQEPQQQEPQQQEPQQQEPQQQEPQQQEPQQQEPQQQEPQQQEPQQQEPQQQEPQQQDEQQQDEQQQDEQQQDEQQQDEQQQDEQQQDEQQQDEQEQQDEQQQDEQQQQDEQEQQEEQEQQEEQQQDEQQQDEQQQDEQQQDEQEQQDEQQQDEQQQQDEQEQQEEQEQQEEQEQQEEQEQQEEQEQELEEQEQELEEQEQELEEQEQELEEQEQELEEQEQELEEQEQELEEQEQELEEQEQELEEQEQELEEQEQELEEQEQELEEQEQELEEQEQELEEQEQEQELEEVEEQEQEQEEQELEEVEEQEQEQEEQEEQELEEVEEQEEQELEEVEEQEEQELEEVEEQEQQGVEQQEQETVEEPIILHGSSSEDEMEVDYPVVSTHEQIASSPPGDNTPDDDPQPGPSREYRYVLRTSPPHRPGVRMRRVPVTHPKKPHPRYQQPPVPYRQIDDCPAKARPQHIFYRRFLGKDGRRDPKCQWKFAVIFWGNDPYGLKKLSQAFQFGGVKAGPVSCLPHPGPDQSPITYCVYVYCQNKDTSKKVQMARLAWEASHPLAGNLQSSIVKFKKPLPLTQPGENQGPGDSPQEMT
An asterisk follows results filed as active; ? = inconclusive; nt = no result given; & = joins results of further samples.

SMILES	Vif TR-FRET	HNF4A DNA FP	RanGTP-Impb inh	B2AR ag	Calb FLC	ALR inh	LANA-H2A inh
CC(C)[C@H](NC(=O)[C@@H]1CSCN1C(=O)OC(C)(C)C)C(=O)NCC1CCC(C(=O)O)CC1 (stereo not given in full)	-3%	-0.3	-1.5	-3	9	-3	4.1
CC(=O)c1cc2c(cc1NC(=O)CCn1cccc1)OCO2	7%	-3.6	-3.8	7	-5	nt	-0.5
COc1ccc2oc(=N)c(C(=O)Nc3ccccc3)cc2c1	2%	3.8	nt	8	nt	-8	0.0
Cc1ccnc(SCCn2c(N3CCCCC3)nc3c2c(=O)n(C)c(=O)n3C)n1	24%	-3.1	0.4	-18	-18	2	-7.0
CC1(C)NC(=O)N(CC(=O)Nc2cc(S(=O)(=O)N3CCOCC3)ccc2N2CCOCC2)C1=O	nt	nt	-7.5	nt	-4	-6	-1.5
COCc1c(C(=O)N2CCN(S(=O)(=O)c3ccccc3Cl)CC2)oc2ccccc12	-12%	-3.2	nt	4	nt	nt	-0.3
COC(=O)c1cc2occc2n1CC(=O)Nc1ccc(OC)c(OC)c1	9%	-3.9	2.3	0	-4	-3	-5.1
CC(=O)c1ccc(S(=O)(=O)Nc2ccc(-n3c(C)nc4ccccc4c3=O)cc2)cc1	15%	-6.8	3.5	3	9	-1	7.0
COc1ccc(OC)c(C2/C(=C(/O)c3ccc(C)cc3)C(=O)C(=O)N2Cc2ccco2)c1 (stereo not given)	nt	-1.9	-0.8	1	50	0	5.4
Cn1cccc1/C=N/NC(=O)CNc1cccc2ccccc12	7%	3.3	3.0	11	3	21	-1.7
CCN(CC)CCOC(=O)c1ccc(NC(=O)CCCN2C(=O)S/C(=C/c3ccc(OC)cc3)C2=S)cc1	nt	6.7	-0.2	4	13	-3	-9.9
O=C(CCN1C(=O)c2cccc3cccc(c23)C1=O)NCc1ccco1	7%	-3.4	-0.6	6	22	-16	0.9
Cc1ccnc(NC(=O)CNC(=O)c2ccc3ccccc3c2)c1	-2%	5.9	0.4	2	13	-8	-2.7
CCN(CC)C(=O)[C@H]1CC(CC(=O)NCCN2CCOCC2)C(=O)N2CCc3c([nH]c4ccc(OC)cc34)[C@]12C (stereo not given in full)	-8%	-1.1	nt	3	nt	nt	nt
CS(=O)(=O)N1CCN(c2ccc(NC(=O)COc3ccccc3)cc2)CC1	-5%	3.4	-1.5	1	0	-1	-6.6
O=C(O)c1cc(NN=C2CCN(Cc3ccccc3)CC2)ccc1Cl	1%	-2.9	0.5	2	6	-7	4.6
O=C(CN1C(=O)c2ccccc2C1=O)Nc1cccc(S(=O)(=O)Nc2ccccc2Cl)c1	-3%	1.8	1.8	9	2	-3	3.0
Cc1ccc(S(=O)(=O)N2CCC(C(=O)Nc3ccc(N4CCOCC4)cc3)CC2)cc1C	-4%	-1.6	nt	3	nt	nt	nt
CCN(CC)CCSc1nnc(Nc2ccccc2)n1-c1ccccc1	2%	4.0	2.4	-1	0	2	2.8
CCOC(=O)N1CCN(C(=O)C(C)(C)Oc2ccc(Cl)cc2)CC1	0%	0.7	0.2	0	12	-12	2.1

3 entries out of the list, ordered by SMILES length, smallest number first:
SMILES	Vif TR-FRET	HNF4A DNA FP	RanGTP-Impb inh	B2AR ag	Calb FLC	ALR inh	LANA-H2A inh
Cn1cccc1/C=N/NC(=O)CNc1cccc2ccccc12	7%	3.3	3.0	11	3	21	-1.7
Cc1ccnc(SCCn2c(N3CCCCC3)nc3c2c(=O)n(C)c(=O)n3C)n1	24%	-3.1	0.4	-18	-18	2	-7.0
Cc1ccc(S(=O)(=O)N2CCC(C(=O)Nc3ccc(N4CCOCC4)cc3)CC2)cc1C	-4%	-1.6	nt	3	nt	nt	nt

Carrying on.
SMILES	Vif TR-FRET	HNF4A DNA FP	RanGTP-Impb inh	B2AR ag	Calb FLC	ALR inh	LANA-H2A inh
Cc1ccc(-n2nc(CN3CCOCC3)c(-c3ccccc3)c2N)c(C)c1	14%	-0.4	3.2	5	-6	38	0.8
COc1ccc(OC)c(-c2nn(-c3ccccc3)cc2C(=O)NCC(c2cccs2)N2CCOCC2)c1 (stereo not given)	11%	-1.3	-1.1	-31	22	-4	1.9
O=C(Nc1ccc(C(F)(F)F)cc1)C1CCCN1S(=O)(=O)c1cccc2cccnc12 (stereo not given)	0%	-1.4	-1.7	-8	-19	-1	-0.9
COc1ccc(C(=O)CC2(C(=O)O)CCCCC2)cc1	nt	-3.1	-1.2	1	4	1	0.0
O=C(CN1CCCc2ccccc21)NCc1ccccc1Cl	nt	2.4	-0.3	6	11	63	2.9
C/C(=N\NC(=O)CNC(=O)c1ccccc1Br)c1ccco1	nt	4.3	1.6	2	-11	-20	-0.4
C/C(CC(=O)NC1CCCCC1)=N\NC(=O)c1ccc(Br)cc1	nt	0.4	-2.0	-2	4	-8	-19
CC(=O)NCC1COc2ccccc2O1 (stereo not given)	0%	-1.4	-6.4	3	-5	0	1.0
COc1ccc(Nc2nc(-c3ccccc3)cs2)cc1	2%	-0.6	3.1	2	-23	-6	2.4
CC(=O)c1cccc(NC(=O)c2onc(C)c2Cl)c1	-2%	7.0	1.5	-1	-8	nt	nt
CC(C)(C)c1ccc(C(=O)NC(=S)NNC(=O)c2cccs2)cc1	-1%	-0.6	2.0	5	2	98*	-9.6
COc1ccc(/C=N/N2CCOCC2)cc1OCc1ccccc1	7%	6.3	0.7	-2	-22	20	2.3
COCc1cc(C)nc(OCC(=O)N/N=C/c2ccc(C)o2)c1C#N	nt	-2.1	-2.1	-2	-2	-7	2.6
COc1ccccc1NS(=O)(=O)c1cc(NC(=O)Nc2ccccc2)ccc1N1CCCCC1	nt	3.2	nt	0	nt	-39	-1.9
O=C(NCCCN1CCCC1=O)c1cc(=O)c2ccccc2o1	-5%	-2.5	6.5	2	31	2	0.6
CCCc1cc(=O)[nH]c(SCCc2ccccc2)n1	nt	0.1	-3.1	-4	-3	-21	-2.9
COc1cc(-c2nnc(Sc3ccc(C(F)(F)F)cc3[N+](=O)[O-])o2)cc(OC)c1OC	0%	2.5	8.5	-8	-3	-15	0.2
Cc1nc2c(-c3ccccc3)c(C)nn2c(C)c1CCC(=O)O	-2%	-3.5	4.8	7	4	nt	-1.4
O=C(NC1CCCC1)C(c1ccccc1)N(Cc1ccccc1)C(=O)c1csnn1 (stereo not given)	-8%	3.1	2.6	2	-8	-6	4.7
CCOc1ccc(-c2noc(CCCC(=O)NC3CCCC3)n2)cc1OC	nt	2.5	-0.4	9	-6	1	-6.3
Cc1cccc(-c2cc3nc(C)cc(C)n3n2)c1	nt	1.4	-2.4	-8	-7	1	3.6
CCOc1ccc(NC(=O)CSc2nccn(-c3ccc4c(c3)OCCO4)c2=O)cc1	-5%	-2.6	-2.1	5	23	98*	1.0
Fc1ccccc1Cc1noc(CN2CCN(Cc3ccc4c(c3)OCO4)CC2)n1	-11%	5.8	5.1	0	-20	-16	-1.0
CSc1nnc2c(=O)[nH]c(=O)n(C)c2n1	-6%	2.1	nt	-1	nt	nt	nt
COc1cc(OC)cc(C(=O)O/N=C(\N)c2ccccn2)c1	nt	-4.7	2.9	7	-3	5	-1.0
COc1cc(OC)c2c(-c3cccc(-c4ccc(N(C)C)cc4)c3)cc(=O)oc2c1	-5%	1.8	nt	17	nt	nt	nt
CCCCOCC(O)Cn1c(C)nc2ccccc21 (stereo not given)	4%	-1.5	-1.4	0	-9	-16	0.6
Cn1cc(C(=O)c2ccc(Cl)cc2Cl)cc1C(=O)N/N=C(\N)COc1cccc(C(F)(F)F)c1	-2%&-9%	1.6	7.0	2	27	-1	4.9
CC1C(=O)Nc2ccccc2N1C(=O)c1ccc(F)cc1 (stereo not given)	5%	-2.8	-8.0	1	-18	nt	3.3
CCCC(=O)NC(c1ccc(Cl)cc1)c1ccc2cccnc2c1O (stereo not given)	nt	2.1	5.4	11	108*	-1	0.8
CC(=O)C[C@@H](O)CC(=O)[C@@H]1OC(=O)CCCCCCCCc2ccccc21	nt	-2.3	nt	1	nt	-2	9.2*
O=S(=O)(N1CCCCC1)N1CCNCC1	3%	-4.8	1.1	3	2	-2	1.5
CC(=O)c1cccc(NC(=O)COC(=O)CCC(=O)c2cccs2)c1	2%	-4.3	nt	2	nt	nt	nt
CCC(C)(C)n1nnnc1C(c1cc2cccc(C)c2[nH]c1=O)N1CCCC1 (stereo not given)	7%	0.1	?	-9	13	-5	1.2
C#Cc1cccc(C(=O)N2CCCC(C(=O)c3ccc(OC)cc3C)C2)c1 (stereo not given)	7%	-2.8	-4.6	-1	-25	-3	-2.0
COc1ccc(CCNC(=O)c2csc3c2CCCC3)cc1OC	-15%	0.2	0.3	-4	-2	nt	0.1
O=S(=O)(Cc1cc(NCc2ccccc2)nc(-c2ccccn2)n1)c1ccccc1	31%	-2.1	?	-11	-6	56	-2.2
Cc1onc(-c2ccccc2Cl)c1C(=O)NCc1nc(-c2ccc(C(F)(F)F)cc2)no1	31%	-0.3	2.5	-6	-2	1	-0.9
CC(OC(=O)/C=C/c1ccc2ccccc2n1)C(=O)N(C)c1ccccc1 (stereo not given)	1%	-0.9	nt	22	nt	1	10
COc1ccc(C)cc1NC(=O)NCc1ccccn1	-7%	0.5	0.7	-4	-2	-5	0.4
S=c1[nH]nc(-c2ccco2)n1/N=C/c1cccc(Cl)c1	6%	-2.2	-2.0	0	-1	-4	5.9
O=C(Cc1cccs1)Nc1cccc(-c2nnc(-c3ccco3)o2)c1	0%	5.4	-0.4	-19	11	-17	-1.7
O=C(Nc1ccccc1)N1CCN(Cc2ccc3c(c2)OCO3)CC1	?	-0.9	-4.0	4	-22	-5	1.0
CCOC(=O)C1CCCN(c2ncnc3c2oc2ccccc23)C1 (stereo not given)	2%	-4.2	0.6	4	0	nt	1.8
O=C(CN(C(=O)CCC(=O)Nc1nccs1)c1cccc(F)c1)NCc1ccc2c(c1)OCO2	nt	0.5	-0.9	0	7	-3	0.0
CCOC(=O)c1ccc(NC(=O)CSc2nnnn2CCCO)cc1	5%	4.8	3.8	-5	0	-17	2.7
CCN(Cc1ccccc1)C(=O)C1CCN(Cc2ccc(OC)c(OC)c2OC)CC1	-7%&-3%	-2.5	-0.5	-1	-8	-7	-3.4
COc1ccc([C@H](OC)[C@@]2(Cc3ccc(O)cc3)N=C(N)N(C)C2=O)cc1	nt	4.1	nt	-2	nt	7	0.8
COC(=O)c1sccc1NC(=O)/C=C/c1c(Cl)cccc1Cl	19%	-1.3	2.6	5	-20	-2	-0.5
O=S1(=O)CCN2C(=N1)SC1=C2CCN(Cc2ccccc2)C1	2%	0.3	4.5	5	-8	2	-2.6

Next compounds follow:
SMILES	Vif TR-FRET	HNF4A DNA FP	RanGTP-Impb inh	B2AR ag	Calb FLC	ALR inh	LANA-H2A inh
CCc1c(C)c2ccc(OCC(=O)NCC3CCC(C(=O)O)CC3)c(C)c2oc1=O (stereo not given)	nt	-0.6	0.5	-3	0	nt	-5.9
COc1ccc2c(c1)C(=O)[C@@H](O)[C@H](c1ccc(OC)c(Br)c1)O2	7%	-2.4	4.7	0	-15	-2	1.2
COC(=O)[C@@H](NC(=O)c1ccc2c(c1)S(=O)(=O)c1ccccc1C2=O)C(C)C	-7%	-1.0	2.3	7	44	nt	-9.0
Brc1ccc(-c2nnc(-c3cccnc3)o2)cc1	nt	-1.8	-1.1	-6	1	0	-1.2
O=C(COC(=O)C12CC3CC(CC(Br)(C3)C1)C2)NNC(=O)c1ccccc1	-14%	7.5	nt	-10	nt	-1	-2.1
CCc1cc(C(=O)OC)c(NC(=O)CC2NCCNC2=O)s1 (stereo not given)	-9%	3.3	?	3	2	7	1.0
CCS(=O)(=O)c1c(S(=O)(=O)CC)c2ccccn2c1C(N)=O	8%	0.7	-4.3	0	26	-17	-1.1
Cc1ccccc1-n1c(SCC(=O)Nc2c(C)cccc2C)nc(O)cc1=O	nt	-0.6	-1.5	0	34	-9	6.6
Cc1ccccc1C(=O)Nc1nnc(-c2ccco2)o1	-2%	-1.2	-2.3	4	-10	-5	-4.4
